AF4-AF9 inh – MLL-AF4/AF9 protein interaction inhibition. inhibition, % at 10 µM. P42568. AlphaScreen, biotin-AF4 peptide binding to FLAG-AF9. AID 651704. 350,000 compounds, 0.47% hits;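 active = every replicate reaching a set inhibition limit, whatever the replicate mean, cut at about 25% in these data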;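 note: 0% = plate neutral control median and 100% = total signal loss; the record names both 10 and 1 µM as test concentration; the first replicate is given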
Target sequence (P42568 whole entry, looked up): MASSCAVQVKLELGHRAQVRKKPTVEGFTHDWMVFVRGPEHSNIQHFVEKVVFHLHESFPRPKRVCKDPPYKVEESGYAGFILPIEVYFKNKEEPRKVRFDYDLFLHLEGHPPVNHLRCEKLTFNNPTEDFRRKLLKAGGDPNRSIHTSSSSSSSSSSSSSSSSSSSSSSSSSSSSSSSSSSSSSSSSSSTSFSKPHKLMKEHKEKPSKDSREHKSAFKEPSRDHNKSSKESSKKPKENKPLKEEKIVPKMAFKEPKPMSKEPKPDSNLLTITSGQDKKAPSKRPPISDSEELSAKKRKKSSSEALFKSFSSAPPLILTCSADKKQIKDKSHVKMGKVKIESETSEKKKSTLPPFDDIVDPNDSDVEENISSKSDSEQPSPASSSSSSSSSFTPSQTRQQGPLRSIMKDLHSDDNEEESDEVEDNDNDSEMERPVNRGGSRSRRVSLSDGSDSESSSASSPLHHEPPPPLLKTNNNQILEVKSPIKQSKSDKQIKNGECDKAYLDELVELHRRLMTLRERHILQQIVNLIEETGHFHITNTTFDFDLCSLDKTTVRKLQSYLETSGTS
* hit, by the source's call.

For COC(=O)C[C@@H]1C[C@@H]2c3cc(N(C)C)ccc3O[C@@H]2[C@@H](CO)O1 the results were AF4-AF9 inh -0.9.
CNC[C@H]1Oc2cc(C#CCN(C)C)ccc2S(=O)(=O)N([C@H](C)CO)C[C@H]1C was read as AF4-AF9 inh 11.1.
`COc1ccc(S(=O)(=O)N(C)C[C@@H]2Oc3ccc(NS(=O)(=O)c4ccc(Cl)cc4)cc3C(=O)N([C@H](C)CO)C[C@@H]2C)cc1` gave AF4-AF9 inh -2.4.
For Cc1noc(C)c1NC(=O)N(C)C[C@H]1OCCCC[C@@H](C)Oc2ccc(NC(=O)c3ccccc3)cc2C(=O)N([C@@H](C)CO)C[C@@H]1C the results were AF4-AF9 inh -1.2.
COc1ccc2c3c([nH]c2c1)[C@H](CO)N(C(=O)Nc1ccc(F)cc1)CC31CN(C(=O)Cc2ccncc2)C1 was read as AF4-AF9 inh -3.1.
`Cc1ccc(S(=O)(=O)Nc2ccc3c(c2)C(=O)N([C@@H](C)CO)C[C@H](C)[C@@H](CN(C)Cc2ccncc2)OCCCC[C@@H](C)O3)cc1` gave AF4-AF9 inh 0.9.
`CC(=O)N1[C@@H]2Cn3c(cccc3=O)[C@H]1[C@@H](C(=O)NCc1ccc(F)cc1)[C@@H]2CO` gave AF4-AF9 inh 0.2.
Screening C[C@@H]1CN([C@H](C)CO)C(=O)c2cccc(NS(=O)(=O)c3ccccc3)c2O[C@@H]1CN(C)S(=O)(=O)c1cccs1 returned AF4-AF9 inh 1.3.
For CSCCC1Nc2ccc(S(=O)(=O)N3CCOCC3)cc2NC1=O (stereo not given) the results were AF4-AF9 inh 1.2.
For CNC(=O)C[C@@H]1CC[C@@H]2[C@H](COC[C@H](O)CN2Cc2ccccc2F)O1 the results were AF4-AF9 inh -0.2.
For C[C@H](CO)N1C[C@H](C)[C@@H](CN(C)CC2CCCCC2)Oc2ccc(NC(=O)Cc3ccccc3)cc2C1=O the results were AF4-AF9 inh -1.6.
COc1cccc(CNC(=O)[C@@H]2CCCN2C(=O)[C@@H]2CCCN2C(=O)c2c(F)cccc2F)c1 was read as AF4-AF9 inh -4.4.
`CN1C(=O)c2cc(NC(=O)Cc3ccccc3)ccc2OC[C@@H]2O[C@H](CC(=O)NCC3CC3)CC[C@@H]21` gave AF4-AF9 inh -2.2.
For CCCCNC(=O)C1(C)CCCCN1CC(=O)c1ccc(OC)cc1 (stereo not given) the results were AF4-AF9 inh -4.7.
COc1ccc(NC(=O)N2CCCCN3[C@H](CO)[C@H](c4ccc(C#Cc5ccccn5)cc4)[C@@H]3C2)cc1 was read as AF4-AF9 inh -4.6.
For COc1cccc(NC(=O)N(C)C[C@@H]2Oc3cc(-c4ccccc4F)ccc3S(=O)(=O)N([C@@H](C)CO)C[C@H]2C)c1 the results were AF4-AF9 inh 0.5.
`C[C@H]1CN([C@@H](C)CO)C(=O)c2cc(C#Cc3cccc(F)c3)cnc2O[C@H]1CN(C)CC1CCCC1` gave AF4-AF9 inh 5.5.
Screening COc1ccc(C#Cc2ccc3c(c2)[C@H]2[C@H](CCN2Cc2ccncc2)[C@H](CO)N3)cc1 returned AF4-AF9 inh 5.1.
`COc1cccc(S(=O)(=O)Nc2ccc3c(c2)[C@H]2C[C@H](CC(=O)NCc4cccc(F)c4)O[C@H](CO)[C@H]2O3)c1` gave AF4-AF9 inh 1.8.
For CCCCCCCCCCCCCCCC(=O)OC(CC(=O)O)C[N+](C)(C)C (stereo not given) the results were AF4-AF9 inh -1.2.
CC1(C(=O)NS(=O)(=O)c2ccccc2Cl)CCN1C(=O)c1ccccc1 (stereo not given) was read as AF4-AF9 inh -3.5.
Screening CN1C(=O)c2cc(NC(=O)c3cccc(F)c3)ccc2OC[C@H]2O[C@@H](CC(=O)N3CCc4ccccc4C3)CC[C@H]21 returned AF4-AF9 inh 0.1.
CNC(=O)C[C@@H]1CC[C@@H]2[C@H](COc3ccc(NC(=O)Nc4ccc(Cl)cc4)cc3C(=O)N2C)O1 was read as AF4-AF9 inh -0.5.
CC(C)NC(=O)N(C)C[C@@H]1OCCCC[C@@H](C)Oc2ccc(NC(=O)Nc3ccccc3)cc2C(=O)N([C@H](C)CO)C[C@@H]1C was read as AF4-AF9 inh -1.0.
For CC(=O)N1[C@H](CO)[C@H](c2ccccc2)[C@@H]1CN(C)S(=O)(=O)c1ccccc1 the results were AF4-AF9 inh -2.3.
C[C@@H]1CN([C@@H](C)CO)C(=O)c2cc(NC(=O)Cc3cn(C)c4ccccc34)ccc2O[C@@H]1CN(C)Cc1ccc(Cl)c(Cl)c1 was read as AF4-AF9 inh 2.8.
`COc1ccc2c3c([nH]c2c1)[C@@H](CO)N(C(=O)C1CCCC1)CC31CCN(Cc2nccs2)CC1` gave AF4-AF9 inh 3.7.
CO[C@@H]1CN(C)C(=O)c2ccc(NC(=O)c3ccccc3F)cc2OC[C@H](C)N(C(C)=O)C[C@@H]1C was read as AF4-AF9 inh -0.3.
C[N+](C)(C)CCN1C(=O)c2ccccc2C1=O was read as AF4-AF9 inh -10.1.
Screening O=C(C[C@H]1C[C@H]2c3cc(NC(=O)Cc4ccncc4)ccc3O[C@H]2[C@H](CO)O1)NCc1ccc(-c2ccccc2)cc1 returned AF4-AF9 inh -0.7.

Next part, overlapping the part above by 2 compounds.
C[N+](C)(C)CCN1C(=O)c2ccccc2C1=O was read as AF4-AF9 inh -10.1.
Screening O=C(C[C@H]1C[C@H]2c3cc(NC(=O)Cc4ccncc4)ccc3O[C@H]2[C@H](CO)O1)NCc1ccc(-c2ccccc2)cc1 returned AF4-AF9 inh -0.7.
For COc1ccccc1CNC(=O)C[C@@H]1CC[C@@H]2[C@H](COC[C@@H](O)CN2Cc2ccccc2)O1 the results were AF4-AF9 inh -0.7.
`CN1OC[C@@H]2CN(C(=O)CCc3ccccc3)[C@H](c3ccc(-n4ccnc4)cc3)C[C@@H]21` gave AF4-AF9 inh 0.2.
Screening C[C@H]1CN([C@@H](C)CO)C(=O)c2cc(NC(=O)Nc3ccc(C(F)(F)F)cc3)ccc2O[C@H]1CN(C)Cc1ccncc1 returned AF4-AF9 inh 1.8.
CC(C)NC(=O)N(C)C[C@H]1Oc2c(NC(=O)CCCCCC(=O)Nc3ccccc3N)cccc2C(=O)N([C@H](C)CO)C[C@H]1C was read as AF4-AF9 inh 1.3.
For C[C@@H]1CCCCO[C@H](CN(C)Cc2ccccc2)[C@@H](C)CN([C@@H](C)CO)C(=O)c2cc(NC(=O)Nc3cccc4ccccc34)ccc2O1 the results were AF4-AF9 inh 12.8.
Screening O=C(O)C[C@@H]1C[C@H]2c3cc(NC(=O)Cc4ccncc4)ccc3O[C@H]2[C@@H](CO)O1 returned AF4-AF9 inh -0.7.
Screening C[C@@H]1CN([C@@H](C)CO)C(=O)c2cc(N(C)C)ccc2O[C@H]1CN(C)Cc1ccccc1 returned AF4-AF9 inh -2.8.
`C[C@@H]1CN([C@@H](C)CO)S(=O)(=O)c2ccc(C#CCN(C)C)cc2O[C@H]1CN(C)Cc1ccc(F)cc1` gave AF4-AF9 inh 21.3.
`CC(=O)NC(CC(C)C)C(=O)O` (stereo not given) gave AF4-AF9 inh -0.2.
`O=C(NCC[C@H]1CC[C@@H](NC(=O)C2CCCC2)[C@H](CO)O1)c1cnccn1` gave AF4-AF9 inh -2.4.

Retrieved one by one from the list above, six records:
Screening C[C@@H]1CN([C@@H](C)CO)C(=O)c2cc(N(C)C)ccc2O[C@H]1CN(C)Cc1ccccc1 returned AF4-AF9 inh -2.8.
Screening C[C@H]1CN([C@@H](C)CO)C(=O)c2cc(NC(=O)Nc3ccc(C(F)(F)F)cc3)ccc2O[C@H]1CN(C)Cc1ccncc1 returned AF4-AF9 inh 1.8.
CC(C)NC(=O)N(C)C[C@H]1Oc2c(NC(=O)CCCCCC(=O)Nc3ccccc3N)cccc2C(=O)N([C@H](C)CO)C[C@H]1C was read as AF4-AF9 inh 1.3.
`CC(=O)NC(CC(C)C)C(=O)O` (stereo not given) gave AF4-AF9 inh -0.2.
For COc1ccccc1CNC(=O)C[C@@H]1CC[C@@H]2[C@H](COC[C@@H](O)CN2Cc2ccccc2)O1 the results were AF4-AF9 inh -0.7.
`O=C(NCC[C@H]1CC[C@@H](NC(=O)C2CCCC2)[C@H](CO)O1)c1cnccn1` gave AF4-AF9 inh -2.4.

More entries
Screening C[C@H]1CN([C@@H](C)CO)C(=O)Cc2cc(NC(=O)Nc3cccc4ccccc34)ccc2O[C@@H]1CN(C)Cc1ccc(Cl)c(Cl)c1 returned AF4-AF9 inh -0.9.
Screening CO[C@@H]1CN(C)C(=O)c2cc(NC(=O)c3nc4ccccc4s3)ccc2OC[C@H](C)N(Cc2ccncc2)C[C@H]1C returned AF4-AF9 inh 6.4.
CNC[C@@H]1OCCCC[C@H](C)Oc2ccc(NC(=O)Cc3ccccc3)cc2C(=O)N([C@@H](C)CO)C[C@H]1C was read as AF4-AF9 inh -10.4.
CCN1[C@H](C(=O)N(C)C)[C@@H](CO)[C@@H]2Cn3c(ccc(-c4ccccc4OC)c3=O)[C@@H]21 was read as AF4-AF9 inh -0.7.
COc1ccc(S(=O)(=O)Nc2cccc3c2O[C@@H](CN(C)Cc2ccncc2)[C@@H](C)CN([C@@H](C)CO)C3=O)cc1 was read as AF4-AF9 inh -2.5.
For CN1CCN(C(=O)C[C@@H]2C[C@H]3c4cc(NC(=O)CC5CC5)ccc4O[C@H]3[C@H](CO)O2)CC1 the results were AF4-AF9 inh -6.8.
CCCN(C)C[C@H]1Oc2cc(C#CC3CCCC3)ccc2S(=O)(=O)N([C@H](C)CO)C[C@@H]1C was read as AF4-AF9 inh 4.6.
For CC1Cc2[nH]c(=S)[nH]c(=O)c2C(c2ccc(F)cc2)O1 (stereo not given) the results were AF4-AF9 inh 2.1.
For O=C(Nc1ccccc1F)N1CC(=O)N2[C@H](CO)[C@@H](c3ccc(-c4ccccc4)cc3)[C@@H]2C1 the results were AF4-AF9 inh -1.6.
For COc1cccc(NC(=O)N2CC(=O)N3[C@H](C2)[C@@H](c2ccc(Br)cc2)[C@@H]3CO)c1 the results were AF4-AF9 inh -1.3.
Screening COCc1cn(CC[C@@H]2CC[C@@H](NC(=O)Nc3ccc(OC)cc3)[C@@H](CO)O2)nn1 returned AF4-AF9 inh -0.9.
Screening CCC(=O)N(C)C[C@H]1Oc2cc(C#CCC3CCCC3)ccc2S(=O)(=O)N([C@@H](C)CO)C[C@H]1C returned AF4-AF9 inh -2.3.
For CC(C)NC(=O)N(C)C[C@H]1Oc2ccc(NS(=O)(=O)c3cn(C)cn3)cc2CC(=O)N([C@@H](C)CO)C[C@@H]1C the results were AF4-AF9 inh -1.5.
`Cc1ccc(C(=O)OCC(=O)Nc2cccc(Br)c2)s1` gave AF4-AF9 inh -2.6.
For C[C@H](CO)N1C[C@H](C)[C@@H](CN(C)C(=O)C2CC2)Oc2ncc(C#Cc3ccccc3)cc2C1=O the results were AF4-AF9 inh -4.7.
Screening COC(=O)[C@]12CCCCC=C1N(Cc1ccccc1)C(=O)[C@H](CC(=O)NCC13CC4CC(CC(C4)C1)C3)C2 returned AF4-AF9 inh -4.7.
For C[C@H]1CN([C@@H](C)CO)C(=O)c2cc(NC(=O)CCC(F)(F)F)ccc2O[C@@H]1CN(C)S(=O)(=O)c1ccc(F)cc1 the results were AF4-AF9 inh -1.1.
For COc1ccc2c3c(n(C)c2c1)[C@@H](CO)N(C(=O)Nc1ccccc1F)CC31CN(C(C)=O)C1 the results were AF4-AF9 inh -1.6.
`COc1cccc(NC(=O)N(C)C[C@H]2Oc3cc(C#Cc4ccc(F)cc4)ccc3S(=O)(=O)N([C@H](C)CO)C[C@H]2C)c1` gave AF4-AF9 inh -16.0.
Screening C[C@H](CO)N1C[C@H](C)[C@H](CN(C)C(=O)C2CC2)Oc2cc(-c3cccc(F)c3)ccc2S1(=O)=O returned AF4-AF9 inh 0.0.
`COc1ccccc1N1CCN(C(=O)[C@@H]2CCCN2C2=NS(=O)(=O)c3ccccc32)CC1` gave AF4-AF9 inh -1.8.
`C[C@@H]1CCCCO[C@@H](CN(C)C(=O)Nc2ccccc2)[C@@H](C)CN([C@@H](C)CO)C(=O)c2cc(NC(=O)CCC(F)(F)F)ccc2O1` gave AF4-AF9 inh 0.0.
For CS(=O)(=O)Nc1ccc2c(c1)[C@@H]1C[C@@H](CC(=O)NCC3CC3)O[C@@H](CO)[C@@H]1O2 the results were AF4-AF9 inh 0.2.
`C[C@@H]1CN([C@H](C)CO)C(=O)c2cc(N(C)C)ccc2O[C@@H]1CN(C)C(=O)NC1CCCCC1` gave AF4-AF9 inh -0.4.
Screening C[C@@H]1CCCCO[C@H](CN(C)S(C)(=O)=O)[C@@H](C)CN([C@H](C)CO)C(=O)c2cc(NC(=O)CCC(F)(F)F)ccc2O1 returned AF4-AF9 inh -8.2.
`CCCC#Cc1cnc2c(c1)C(=O)N([C@@H](C)CO)C[C@H](C)[C@H](CN(C)C(=O)c1cccnc1)O2` gave AF4-AF9 inh -0.2.
Screening O=C(C1CC1)N1CC(=O)N2[C@@H](CO)[C@@H](c3ccc(Br)cc3)[C@@H]2C1 returned AF4-AF9 inh -2.3.
`C[C@H]1CN([C@@H](C)CO)C(=O)c2cc(NC(=O)CCC(F)(F)F)ccc2O[C@@H]1CN(C)C(=O)Nc1cccc2ccccc12` gave AF4-AF9 inh 0.3.
For COc1cccc(-c2ccc3n(c2=O)C[C@H]2[C@H](CO)[C@@H](C(=O)N4CCCCC4)N[C@@H]32)c1 the results were AF4-AF9 inh -2.6.
CN1C(=O)c2cc(NC(=O)C3CCOCC3)ccc2OC[C@@H]2O[C@@H](CC(=O)NC3CCCC3)CC[C@@H]21 was read as AF4-AF9 inh -1.2.
`C[C@@H](NC(=O)C[C@H]1CC[C@@H](NC(=O)C2CC2)[C@@H](CO)O1)c1ccccc1` gave AF4-AF9 inh -1.4.
Screening CO[C@H]1CN(C)C(=O)c2ccc(NC(=O)c3ccno3)cc2OC[C@H](C)N(S(C)(=O)=O)C[C@H]1C returned AF4-AF9 inh -5.7.
Screening O=C(C[C@@H]1C=C[C@H](NC(=O)Nc2ccc(C(F)(F)F)cc2)[C@@H](CO)O1)NCc1cc(F)cc(F)c1 returned AF4-AF9 inh -0.7.
CC(C)NC(=O)c1cc(C2CCCCN2C(=O)CCCc2ccccc2)on1 (stereo not given) was read as AF4-AF9 inh -1.6.
Screening CC(O)(c1ccc(F)c(F)c1)c1nc(-c2cccc(F)c2)cs1 (stereo not given) returned AF4-AF9 inh -7.4.

Assay outcomes (PubChem)

An excerpt, so the mix of outcomes need not match the whole.
